RanGTP-Impb inh = disruptors of Ran-importin-beta complex formation – biochemical, FRET, CFP-Ran, YFP-importin-beta, homogeneous, primary screen. cell-free CFP-Ran/YFP-importin-beta FRET ratio. 300,000 tested, 1.1% active. inhibition, % (concentration not given with the values);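 active means most replicates above 15%; inconclusive means exactly half above 15%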;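 further: 0% = DMSO wells and 100% = Ran loaded with GDP instead of GTP; wells of about 40 µL received 100 nL stock; the first replicate is given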
Calb FLC = C. albicans growth modulation with fluconazole. AID 1979. C. albicans CaCi-2 (fluconazole-resistant clinical isolate) + fluconazole, Alamar Blue growth, 48 h. growth inhibition, % (concentration not given with the values). 300,000 tested, 0.57% active;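 active means most replicates above 75%; inconclusive means exactly half above 75%; inactive means most below 75%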;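 further: all wells also contain fluconazole at 8 µg/ml as a sub-toxic cotreatment; 0% = median of DMSO wells and 100% = median of geldanamycin control wells; wells of about 8 µL received 7.5 nL stock; the first replicate is given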
HNF4A DNA FP = change in binding of human HNF4 alpha to DNA; activity change, % at 10 µM; HNF4a-FITC DNA binding, fluorescence polarization, 1 h; 360,000 tested, 0.3% active; P41235; AID 1224865; in the data active means activity change above about 30%, passing the limit was not always enough;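 further: controls were the assay level and a saturating level of protein; the project sought stronger binding though the title names inhibitors; some compounds called inactive have numbers as strong as hits; positive values seem to mean higher polarization but the record does not say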
Target sequence (P41235 whole entry, looked up): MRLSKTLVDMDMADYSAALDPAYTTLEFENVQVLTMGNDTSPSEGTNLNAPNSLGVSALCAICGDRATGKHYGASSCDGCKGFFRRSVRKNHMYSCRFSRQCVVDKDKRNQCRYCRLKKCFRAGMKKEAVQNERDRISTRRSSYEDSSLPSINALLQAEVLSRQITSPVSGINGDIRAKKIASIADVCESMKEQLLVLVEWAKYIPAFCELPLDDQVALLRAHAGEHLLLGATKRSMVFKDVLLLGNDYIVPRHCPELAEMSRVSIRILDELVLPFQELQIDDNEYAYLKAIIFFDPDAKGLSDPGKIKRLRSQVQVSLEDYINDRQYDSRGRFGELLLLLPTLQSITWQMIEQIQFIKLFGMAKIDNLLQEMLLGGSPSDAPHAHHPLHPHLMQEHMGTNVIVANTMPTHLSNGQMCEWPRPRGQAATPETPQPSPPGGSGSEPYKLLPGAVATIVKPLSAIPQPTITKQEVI
LANA-H2B inh = blocks KSHV LANA binding to histone H2A/H2B; cell-free LANA-H2A/H2B peptide, fluorescence polarization; inhibition, % (concentration not given with the values); 320,000 tested, 0.6% active; AID 2629; in the data active means inhibition mostly above about 10%, no sharp cut-off; inactive means mostly below about 6.7%;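 further: stock transfer was 7.5 nL into about 10 µL; 0% = median of vehicle wells and 100% = median of positive control wells; one replicate is shown; the record names a cut of 25% in any replicate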
Vif A3G = HIV-1 Vif–A3G interaction blockers – biochemical, TR-FRET, GST-Vif 1-94, biotin-A3G peptide, dose response retest, primary screen (AID 1117319). TR-FRET GST-Vif / biotin-A3G peptide binding; higher % means a stronger effect; test concentration not given here; strong numbers were not always called active. inhibition, %, or IC50 in µM where a hit was titrated. 260,000 tested, 0.57% active;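 active means above the screen mean plus three standard deviations and confirmed in dose response; inconclusive means results disagree or hit not tested in dose response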;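 further: Vif residues 1-94 fused to GST binding biotinylated APOBEC3G peptide 110-148; 0% = full assay without inhibitor and 100% = GST in place of GST-Vif; retest series ran down from 100 µM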
ALR inh = inhibitors of human sulfhydryl oxidase ALR. P55789. purified ALR, DTT oxidation, H2O2 HRP-luminol luminescence. inhibition, % (no concentration beside the values). 290,000 tested, 3.8% active. AID 485317;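 active means mean and each replicate at 75% or more; inconclusive means only one of the two met; inactive means neither met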;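 further: stock transfer was 7.5 nL into about 7.5 µL; 0% = neutral wells and 100% = wells with inactivated enzyme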
Target sequence (P55789 whole entry, looked up): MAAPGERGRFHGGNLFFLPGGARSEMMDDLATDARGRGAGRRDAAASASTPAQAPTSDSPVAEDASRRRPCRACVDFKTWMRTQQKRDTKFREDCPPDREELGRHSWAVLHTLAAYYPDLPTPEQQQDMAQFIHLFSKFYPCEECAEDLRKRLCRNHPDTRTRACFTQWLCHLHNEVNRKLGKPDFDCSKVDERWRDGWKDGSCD
B2AR ag = agonists of human beta-2 adrenergic receptor inducing internalization | P07550 | Am2.2-beta2AR cells, FAP receptor internalization, flow cytometry; reference of the scale not given here | response, % (test concentration not listed) | 340,000 tested, 0.43% active | AID 504454;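 active means response above a set limit, near 3 SD of response in nonfluorescent compounds, cut at about 42% in these data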;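 further: stock transfer was 100 nL into about 11 µL; a reference agonist was the positive control; negative values mostly stem from fluorescent compounds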
Target sequence (P07550 whole entry, looked up): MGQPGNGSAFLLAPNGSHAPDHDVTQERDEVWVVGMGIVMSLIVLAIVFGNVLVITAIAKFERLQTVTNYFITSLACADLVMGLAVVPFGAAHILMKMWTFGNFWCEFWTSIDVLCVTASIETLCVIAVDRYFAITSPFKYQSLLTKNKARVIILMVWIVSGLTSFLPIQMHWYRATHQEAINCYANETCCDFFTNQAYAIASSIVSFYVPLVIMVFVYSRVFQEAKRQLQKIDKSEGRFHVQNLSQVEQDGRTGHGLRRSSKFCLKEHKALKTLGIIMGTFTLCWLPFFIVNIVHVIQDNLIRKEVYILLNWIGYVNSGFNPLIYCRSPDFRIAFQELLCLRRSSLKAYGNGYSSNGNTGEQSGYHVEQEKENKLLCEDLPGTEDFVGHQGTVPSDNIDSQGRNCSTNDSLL
* hit, by the source's call. Random draw from the library, and some 6.3% of all compounds hit somewhere here.

What do the screens show for `Cc1nn(-c2ccccc2)c(N2CCCC2)c1/C=C1\N=C(c2ccccc2)OC1=O`?
RanGTP-Impb inh: 9.1; Calb FLC: -16; HNF4A DNA FP: 1.1; LANA-H2B inh: 3.7; Vif A3G: -2%; ALR inh: 5; B2AR ag: 20

How did O=C(CCl)NNc1nc(-c2ccccc2)c2cc(Cl)ccc2n1 do in these assays?
RanGTP-Impb inh: -0.5; Calb FLC: 3; HNF4A DNA FP: 2.9; LANA-H2B inh: 0.5; Vif A3G: -4%; ALR inh: 59; B2AR ag: 1

How did COc1ccccc1NC(=O)c1ccc(NC(=O)Cc2n[nH]c(=O)c3ccccc23)cc1 do in these assays?
RanGTP-Impb inh: 3.8; Calb FLC: -1; HNF4A DNA FP: 3.8; LANA-H2B inh: 2.0; ALR inh: -2; B2AR ag: 2

How did CCCn1c(SCC(=O)c2cc(C)c(C)cc2C)n[nH]c1=O do in these assays?
RanGTP-Impb inh: 2.6; Calb FLC: -1; HNF4A DNA FP: 0.5; LANA-H2B inh: -0.4; Vif A3G: 3%; ALR inh: inconclusive; B2AR ag: 1

What do the screens show for `CN(C)c1ccc(NC(=S)c2ccc3ccccc3n2)cc1`?
RanGTP-Impb inh: 0.7; Calb FLC: -11; HNF4A DNA FP: -0.1; LANA-H2B inh: 2.4; ALR inh: 26; B2AR ag: -7

How did COC(=O)c1sc(N)c(C(=O)OC)c1COC(=O)CCNS(=O)(=O)c1ccc(C)cc1 do in these assays?
RanGTP-Impb inh: -1.5; Calb FLC: -4; HNF4A DNA FP: 1.0; LANA-H2B inh: -1.2; Vif A3G: -2%; ALR inh: -13; B2AR ag: 6

How did CCOC(=O)[C@@H](C)N(Cc1ccc(OC)cc1)S(=O)(=O)N(Cc1ccccc1)[C@H](C(=O)OC)C(C)C do in these assays?
HNF4A DNA FP: 1.6; LANA-H2B inh: 6.4; ALR inh: 11; B2AR ag: 2

How did COc1ccc(-c2c[n+]3c(n2-c2ccccc2)SCC3)cc1 do in these assays?
RanGTP-Impb inh: -0.6; Calb FLC: 15; HNF4A DNA FP: 2.3; LANA-H2B inh: -3.4; Vif A3G: 12%; ALR inh: -5; B2AR ag: -4

What do the screens show for `COc1cccc(NC(=O)COC(=O)c2ccccc2C(=O)N2CCN(c3ccccc3)CC2)c1`?
RanGTP-Impb inh: -0.2; Calb FLC: 3; HNF4A DNA FP: -6.4; LANA-H2B inh: -2.2; Vif A3G: 21%; ALR inh: 9; B2AR ag: 2

Results for Fc1ccccc1-c1nnc2ccc3ccccc3n12 ?
RanGTP-Impb inh: 2.6; Calb FLC: 10; HNF4A DNA FP: -3.0; LANA-H2B inh: 2.8; ALR inh: -2; B2AR ag: 2

Results for Cc1ccc(C(=O)NCCc2nnc3ccc(N4CCCC4)nn23)cc1 ?
RanGTP-Impb inh: 1.6; Calb FLC: 4; HNF4A DNA FP: 3.3; LANA-H2B inh: 2.2; ALR inh: -1; B2AR ag: -8

What do the screens show for `CCOC(=O)C1=C(O)C(=O)N(CCCn2ccnc2)C1c1ccc(C)cc1` (stereo not given)?
RanGTP-Impb inh: -0.3; Calb FLC: 21; HNF4A DNA FP: -2.6; LANA-H2B inh: 1.5; Vif A3G: 8%; ALR inh: 3; B2AR ag: 2

What do the screens show for `CC(=O)NC(C)C(=O)OCC(=O)c1ccc(-c2ccccc2)cc1` (stereo not given)?
RanGTP-Impb inh: 2.6; Calb FLC: -19; HNF4A DNA FP: 0.6; LANA-H2B inh: -2.2; ALR inh: -9; B2AR ag: -8

How did C#CCN(CC=C)C(=O)c1cccc(OC2CCN(S(C)(=O)=O)CC2)c1 do in these assays?
RanGTP-Impb inh: 0.4; Calb FLC: -1; HNF4A DNA FP: -0.2; LANA-H2B inh: -7.1; B2AR ag: -5

What do the screens show for `CCN(CC)CCn1c2c(c(SCC(=O)Nc3ccc4c(c3)OCCO4)nc1=O)CCC2`?
RanGTP-Impb inh: 0.4; Calb FLC: -5; HNF4A DNA FP: 0.6; LANA-H2B inh: 1.2; Vif A3G: 4%; ALR inh: -353; B2AR ag: -1

Results for CC1c2[nH]c3ccccc3c2C[C@H]2C(=O)N(CCCO)CC(=O)N12 (stereo not given in full) ?
RanGTP-Impb inh: 4.7; Calb FLC: -7; HNF4A DNA FP: 1.0; LANA-H2B inh: -1.9; Vif A3G: -3%; B2AR ag: 4

Results for O=C(COc1ccc(C(=O)NCCc2ccccc2)cc1)Nc1ccccc1 ?
RanGTP-Impb inh: 4.1; Calb FLC: 12; HNF4A DNA FP: -0.7; LANA-H2B inh: -5.6; Vif A3G: -1%; ALR inh: -7; B2AR ag: -10

How did C=CCC[C@@H](Cc1ccc(F)cc1)C(=O)OC[C@@H](NC(=O)[C@H](CC=C)CC(=O)N(CCO)Cc1ccccc1)c1ccccc1 do in these assays?
HNF4A DNA FP: 1.7; LANA-H2B inh: 5.0; ALR inh: 2; B2AR ag: 12

What do the screens show for `CCOC(=O)c1[nH]c(C)c(C(=O)OCc2ccccc2F)c1C`?
RanGTP-Impb inh: -0.9; Calb FLC: 13; HNF4A DNA FP: 0.6; LANA-H2B inh: -1.0; ALR inh: 2; B2AR ag: 7

What do the screens show for `COCCN(C(=O)C1CC(=O)N(Cc2ccc(C)cc2)C1)c1c(N)n(CC(C)C)c(=O)[nH]c1=O` (stereo not given)?
HNF4A DNA FP: 1.7; LANA-H2B inh: 1.2; B2AR ag: -3

What do the screens show for `O=C(CSc1nnc(-c2ccco2)n1CC1CCCO1)c1ccc(F)cc1` (stereo not given)?
RanGTP-Impb inh: 3.4; HNF4A DNA FP: 2.1; LANA-H2B inh: 6.5; Vif A3G: 30%; ALR inh: 68; B2AR ag: -2

What do the screens show for `CC1Cc2ccccc2N1C(=O)CN1C(=O)NC(C)(CCc2ccccc2)C1=O` (stereo not given)?
RanGTP-Impb inh: 2.6; Calb FLC: -1; HNF4A DNA FP: 5.6; LANA-H2B inh: -1.5; ALR inh: -29; B2AR ag: -2

What do the screens show for `O=C(NC[C@@H]1CCCO1)c1cccc2c1C(=O)c1ccc(Cl)cc1S2(=O)=O`?
HNF4A DNA FP: 0.5; LANA-H2B inh: 0.3; ALR inh: -6; B2AR ag: -7

Results for CC1CCC2C(C1)c1sc(=O)[nH]c1SC2(C)C (stereo not given) ?
RanGTP-Impb inh: 5.2; Calb FLC: 12; HNF4A DNA FP: -1.1; LANA-H2B inh: 3.3; Vif A3G: 4%; ALR inh: 98*; B2AR ag: -14

How did Cc1ccc(C(=O)C(OC(=O)COc2ccccc2C)c2ccccc2)cc1 (stereo not given) do in these assays?
RanGTP-Impb inh: 3.9; Calb FLC: 10; HNF4A DNA FP: -2.6; LANA-H2B inh: -1.3; Vif A3G: 26%; ALR inh: -19; B2AR ag: 2

How did CC(=O)NCc1ccc(S(=O)(=O)NC(C(=O)O)C(C)C)cc1 (stereo not given) do in these assays?
RanGTP-Impb inh: 1.4; Calb FLC: -2; HNF4A DNA FP: -1.9; LANA-H2B inh: 5.1; Vif A3G: 11%; B2AR ag: 1

Results for O=C(O)/C=C/C(=O)NC1CCCCCCCCCCC1 ?
RanGTP-Impb inh: inconclusive; Calb FLC: -12; HNF4A DNA FP: -1.6; LANA-H2B inh: 1.9; ALR inh: 43; B2AR ag: 0

What do the screens show for `Cc1ccc(C(C(=O)NC2CCCC2)N(Cc2cccs2)C(=O)c2csnn2)o1` (stereo not given)?
RanGTP-Impb inh: 1.6; Calb FLC: -2; HNF4A DNA FP: -0.7; LANA-H2B inh: 2.0; Vif A3G: -9%; ALR inh: -1; B2AR ag: 2

What do the screens show for `CC1CCCC(NC(=S)Nc2ccc(SC(F)F)cc2)C1C` (stereo not given)?
RanGTP-Impb inh: 1.6; Calb FLC: -3; HNF4A DNA FP: -3.5; LANA-H2B inh: 4.1; Vif A3G: inconclusive; ALR inh: 0; B2AR ag: -4

Results for Nc1cc(Cl)ccc1N1CCCC1 ?
RanGTP-Impb inh: -2.1; Calb FLC: -34; HNF4A DNA FP: -0.3; LANA-H2B inh: -0.2; Vif A3G: 8%; ALR inh: -36; B2AR ag: 6

Compounds above that have a COOH group:
How did CC(=O)NCc1ccc(S(=O)(=O)NC(C(=O)O)C(C)C)cc1 (stereo not given) do in these assays?
RanGTP-Impb inh: 1.4; Calb FLC: -2; HNF4A DNA FP: -1.9; LANA-H2B inh: 5.1; Vif A3G: 11%; B2AR ag: 1

Results for O=C(O)/C=C/C(=O)NC1CCCCCCCCCCC1 ?
RanGTP-Impb inh: inconclusive; Calb FLC: -12; HNF4A DNA FP: -1.6; LANA-H2B inh: 1.9; ALR inh: 43; B2AR ag: 0

Remaining list, next part:
How did CC(Oc1cccc(Cl)c1)C(=O)N1CCN(c2ncccn2)CC1 (stereo not given) do in these assays?
HNF4A DNA FP: 1.1; LANA-H2B inh: -7.0; Vif A3G: -13%; ALR inh: 0; B2AR ag: 1

What do the screens show for `Cc1cc(-c2nn(-c3ccccc3F)cc2CN2CCCC(C(N)=O)C2)c(C)s1` (stereo not given)?
RanGTP-Impb inh: 4.4; Calb FLC: -1; HNF4A DNA FP: 3.8; LANA-H2B inh: 5.0; Vif A3G: 0%; ALR inh: -12; B2AR ag: -6

What do the screens show for `Cc1ccc(C2=Nc3cccnc3C(c3ccccc3)=NN2)cc1`?
RanGTP-Impb inh: -3.0; Calb FLC: 2; HNF4A DNA FP: 0.6; LANA-H2B inh: 9.8; Vif A3G: -5%; B2AR ag: 0

How did CCOc1ccc(S(=O)(=O)Nc2ccc(S(=O)(=O)N3CCCC3)cc2)cc1 do in these assays?
RanGTP-Impb inh: -2.7; Calb FLC: 2; HNF4A DNA FP: 3.3; LANA-H2B inh: 0.7; Vif A3G: 3%; B2AR ag: -11

How did COc1ccc(-c2coc3cc4oc(=O)c(CC(=O)O)c(C)c4cc23)cc1 do in these assays?
RanGTP-Impb inh: 11; Calb FLC: 12; HNF4A DNA FP: -0.9; Vif A3G: -2%; B2AR ag: 6

What do the screens show for `CCSc1ccc(-c2nn(-c3ccccc3)cc2/C=C(/C#N)C(=O)NC)cc1`?
HNF4A DNA FP: 2.6; LANA-H2B inh: 0.2; ALR inh: 30; B2AR ag: -14

How did Cc1ccccc1C(=O)N1CCN(c2ccc([N+](=O)[O-])c(N3CCOCC3)c2)CC1 do in these assays?
RanGTP-Impb inh: -1.2; Calb FLC: 3; HNF4A DNA FP: 3.1; LANA-H2B inh: 1.0; Vif A3G: -7%; ALR inh: -10; B2AR ag: -3

What do the screens show for `O=C(CCCCCNC(=O)N1CCn2c1nc1ccccc12)NCc1ccccc1`?
RanGTP-Impb inh: 4.0; Calb FLC: 18; HNF4A DNA FP: 1.0; LANA-H2B inh: 5.1; ALR inh: -7; B2AR ag: -9

Results for CCOC(=O)C1=NNC2C(=O)N(C3CCCCC3)C(=O)C12 (stereo not given) ?
RanGTP-Impb inh: 3.3; Calb FLC: -1; HNF4A DNA FP: -1.5; LANA-H2B inh: -0.5; Vif A3G: -4%; ALR inh: -4; B2AR ag: 1

How did O=C(Nc1ccon1)c1cc(-c2ccccc2)nc2ccccc12 do in these assays?
RanGTP-Impb inh: 4.9; Calb FLC: 20; HNF4A DNA FP: -0.1; LANA-H2B inh: -4.4; Vif A3G: 13%; ALR inh: -2; B2AR ag: -2

Results for Cc1ccc(-n2nc(-c3ccccc3)cc2Nc2ccccc2N)cc1 ?
RanGTP-Impb inh: -2.3; Calb FLC: -14; HNF4A DNA FP: -1.7; LANA-H2B inh: -7.6; ALR inh: inconclusive; B2AR ag: -6

How did C/C(=N\NC(=O)c1cccc([N+](=O)[O-])c1)c1cccc(NC(=O)C2CC2)c1 do in these assays?
RanGTP-Impb inh: -0.5; Calb FLC: -15; HNF4A DNA FP: -1.0; LANA-H2B inh: 1.6; Vif A3G: 6%; ALR inh: 30; B2AR ag: 0
